Mtb H37Rv = M. tuberculosis H37Rv growth inhibitors, H37Rv strain (AID 1626); M. tuberculosis H37Rv growth inhibition; higher % means a stronger effect; inhibition, % at 10 µM; hits with a dose series show IC50 in µM; 0.95% of 220,000 active;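 active = confirmed in a dose series; inconclusive = inhibition above 80% but not taken into the dose series; inactive = below 80% or under 30% at every dose of the series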;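 also: bacteria incubated seven days before Alamar blue readout; 0% = bacteria only wells and 100% = bacteria with antibiotic wells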
Mtb bLac sens = beta-lactam sensitization of Mtb H37Rv; AID 434955; inhibition, % at 25 µM; M. tuberculosis H37Rv growth with meropenem, percent inhibition; hits of this screen are not shown here; 0.27% of 330,000 active;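 active = about 74% or more and at least 40 points above the plate without the antibiotic, then above 30% in a dose series; inconclusive = first-round hits that could not be retested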;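 also: growth measured after seven days incubation then overnight dye step; 0% = bacteria only wells and 100% = bacteria with antibiotic; twin plates without the antibiotic show which effects depend on it; some results filed as inactive read as strong as hits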
RecA intein inh = Mtb RecA intein splicing inhibition; P9WHJ3; 0.75% of 290,000 active; cell-free RecA intein splicing, fluorescence; inhibition, %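 (about 9 µM by stock and volumes)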; in the data active = inhibition above about 30%; inconclusive = no clear call, values can overlap the other calls;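 also: 0% = vehicle wells and 100% = reference inhibitor control wells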
Target sequence (P9WHJ3 whole entry, looked up): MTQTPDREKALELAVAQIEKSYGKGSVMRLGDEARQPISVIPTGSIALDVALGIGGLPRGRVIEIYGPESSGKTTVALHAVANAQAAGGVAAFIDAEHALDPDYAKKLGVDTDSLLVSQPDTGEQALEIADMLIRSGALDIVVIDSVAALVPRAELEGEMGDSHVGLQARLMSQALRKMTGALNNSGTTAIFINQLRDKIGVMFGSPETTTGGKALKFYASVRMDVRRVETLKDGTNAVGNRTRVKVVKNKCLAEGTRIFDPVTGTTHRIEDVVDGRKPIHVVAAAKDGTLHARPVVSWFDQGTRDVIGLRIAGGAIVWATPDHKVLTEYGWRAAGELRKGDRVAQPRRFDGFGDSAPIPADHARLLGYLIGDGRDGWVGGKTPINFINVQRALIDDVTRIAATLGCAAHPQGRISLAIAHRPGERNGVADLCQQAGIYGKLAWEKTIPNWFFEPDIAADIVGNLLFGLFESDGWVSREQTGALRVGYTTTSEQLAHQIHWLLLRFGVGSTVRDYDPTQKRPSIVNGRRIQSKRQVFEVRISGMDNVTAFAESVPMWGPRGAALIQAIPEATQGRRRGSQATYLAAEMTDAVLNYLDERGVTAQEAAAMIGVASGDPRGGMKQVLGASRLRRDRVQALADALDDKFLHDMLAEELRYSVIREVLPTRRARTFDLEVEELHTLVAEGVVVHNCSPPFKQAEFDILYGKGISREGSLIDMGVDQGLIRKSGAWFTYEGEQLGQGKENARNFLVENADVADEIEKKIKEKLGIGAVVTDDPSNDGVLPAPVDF
Arbovirus inh = antivirals against arbovirus infection; 0.37% of 200,000 active; AID 1251; arbovirus infection cell-based antiviral screen; inhibition, % at 10 µM;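 active = inhibition from about 30%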;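 also: bluetongue infection of BSR cells; cell survival read as ATP light after 72 h; 0% = infected wells without compound and 100% = uninfected wells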
YopH PTP inh = blocks Yersinia enterocolitica YopH tyrosine phosphatase. inhibition, %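 (about 10 µM by stock and volumes)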. 0.16% of 140,000 active. fluorescence Ex485/Em525;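 active = inhibition of 50% or more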;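 also: controls were vehicle for no effect and minimum signal wells for full effect; inactives centre near -20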
Arbovirus inh repeat = second read-out of Arbovirus inh, no call of its own (marks repeat the call); inhibition, %; measured here: 10K subset replicate screen; many hits read low in the repeat;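 first of two repeat runs on a subset; 0% = infected and 100% = uninfected wells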
* hit, by the source's call; ? = inconclusive; / = not tested or not shown. Only part of the results is shown, so the mix of outcomes need not match the whole.

SMILES	Mtb H37Rv	Mtb bLac sens	RecA intein inh	Arbovirus inh	YopH PTP inh	others
CC(C)CN(C(=O)CN1CCN(c2ccccc2F)CC1)c1c(N)n(CC(C)C)c(=O)[nH]c1=O	2%	-4	-0.6	2	-7
Cc1c(C(=O)NCC(c2ccco2)N2CCCC2)oc2ccc(Cl)cc12 (stereo not given)	/	1	1.7	/	/
O=S(=O)(c1ccc(Br)s1)N1CCCCC1	-5%	-3	0.4	1	0
CCC1(c2ccc(F)cc2)NC(=O)N(CC(=O)Nc2ccc(C)c(S(=O)(=O)N3CCOCC3)c2)C1=O (stereo not given)	0%	-7	0.0	-7	/
CCC(NC(=O)COc1cc2c(c3oc(=O)c(C)c(C)c13)CCC(C)(C)O2)C(=O)O (stereo not given)	/	3	-0.8	/	/
Cc1cc(-c2ccccc2)nc(N(C)NC(=O)c2c(F)cccc2F)c1S(C)(=O)=O	-9%	14	-0.3	4	4
O=C(OCCOc1ccc(Br)cc1)c1ccc(Cl)nc1	48%	58	2.4	8	/
Cc1cc(C)n(-c2cc(C(C)(C)C)nc3c(-c4ccccc4)cnn23)n1	54%	98	12	/	/
Cc1cc[n+](Cc2ccccc2)c(N)c1	/	6	1.9	/	/
CCN(CC)S(=O)(=O)c1ccc(OC)c(NC(=O)c2ccc3c(c2)OCO3)c1	2%	0	/	-12	/
Cc1nc2ccccc2c(=O)n1NC(=O)C1CC1C (stereo not given)	-11%	-2	0.4	5	/
O=C(NCCc1ccccc1)Nc1ccc2c(c1)OCO2	4%	4	-1.3	-7	/
COc1ccc2c(c1OC)C(=O)OC2N1C(=O)CC[C@H]1C(=O)Nc1ccc(F)cc1F (stereo not given in full)	/	-1	-0.2	/	/
O=C1CCc2cc(S(=O)(=O)NC(Cc3ccccc3)C(=O)N3CCN(c4ccccn4)CC3)ccc2N1 (stereo not given)	-11%	1	0.1	1	/
CN(C)/C=C(\C=O)c1c(Cl)cccc1Cl	-3%	-1	2.2	2	/
COc1ccccc1N(C)S(=O)(=O)c1ccc(C(=O)OCC(=O)N2CCCCCC2)cc1	9%	/	0.0	5	/
O=C1CCc2cc(S(=O)(=O)NC(C(=O)NCc3cccnc3)c3ccccc3)ccc2N1 (stereo not given)	-6%	-5	/	16	-33	Arbovirus inh repeat=5
O=C1N/C(=N/N=C/c2ccccc2)SC1(c1ccccc1)c1ccccc1	2%	16	-0.6	4	-40
CCC1(CC)NC(=O)N(CC(=O)OCC(=O)NC(=O)c2ccccc2)C1=O	-1%	-1	-1.5	6	/
Nc1nc(=S)[nH]c2c1C1(CCCC1)Cc1ccccc1-2	-7%	-11	-1.7	4	-6

Four compounds picked at random from the list so far:
SMILES	Mtb H37Rv	Mtb bLac sens	RecA intein inh	Arbovirus inh	YopH PTP inh	others
CCC(NC(=O)COc1cc2c(c3oc(=O)c(C)c(C)c13)CCC(C)(C)O2)C(=O)O (stereo not given)	/	3	-0.8	/	/
O=S(=O)(c1ccc(Br)s1)N1CCCCC1	-5%	-3	0.4	1	0
CCC1(c2ccc(F)cc2)NC(=O)N(CC(=O)Nc2ccc(C)c(S(=O)(=O)N3CCOCC3)c2)C1=O (stereo not given)	0%	-7	0.0	-7	/
CCN(CC)S(=O)(=O)c1ccc(OC)c(NC(=O)c2ccc3c(c2)OCO3)c1	2%	0	/	-12	/

Other structures follow:
SMILES	Mtb H37Rv	Mtb bLac sens	RecA intein inh	Arbovirus inh	YopH PTP inh	others
CCOc1ccccc1N(CC(=O)N(C)Cc1ccccc1)S(=O)(=O)c1ccccc1	/	-5	5.0	/	/
COC(=O)c1ccc(Cn2nc(C)c(Br)c2C)cc1	2%	-1	0.8	-33	-41
O=C(O)c1cccc(N=NN2CCOCC2)c1	-4%	-1	-0.2	-3	/
O=C(NCc1ccco1)c1cccc(S(=O)(=O)N2CCOCC2)c1	-3%	-1	1.8	-2	-24
O=C(CN1CCOCC1)N/N=C/C=C/c1ccccc1	9%	-5	-1.2	3	/
CCOC(=O)c1noc(C)c1C(=O)Nc1cccc(F)c1	-8%	22	13	1	-19
CCC(Sc1nc(-c2ccccc2)c(C#N)c(=O)[nH]1)C(=O)Nc1nnc(C)s1 (stereo not given)	0%	0	0.6	13	-23
COCCN1C(=O)c2ccc(C(=O)NCc3ccco3)cc2C1=O	/	-4	-2.1	/	/
CC(=O)c1ccc(-c2ccc(C(=O)NC3CC(C)(C)NC(C)(C)C3)o2)cc1	/	-14	-16	/	/
O=C(NNc1ccccc1[N+](=O)[O-])Nc1cccc(Cl)c1	19%	-7	4.3	/	/
CC(=O)c1c(C)[nH]c(C(=O)N(C)CC(=O)Nc2ccc(Cl)c(C(F)(F)F)c2)c1C	/	3	1.3	/	/
Cc1ccc(-c2nc3ccccc3[nH]2)cc1NC(=O)c1sc2cc(Cl)ccc2c1Cl	22%	12	0.6	-2	-6
CC(=O)Nc1ccc(NS(=O)(=O)c2ccc3[nH]c(=O)[nH]c3c2)cc1	-4%	2	1.5	22	/
Cc1ccc(NC(=O)C2COc3ccccc3O2)c(C)c1 (stereo not given)	/	1	0.5	/	/
OCCC1CN(CC2CCCCC2)CCN1CC1CCCCC1 (stereo not given)	/	-7	-3.5	/	/
COc1ccc(-n2nc(C(=O)NCC(=O)N3CCOCC3)c3ccccc3c2=O)c(OC)c1	/	-5	0.5	/	/
CCc1ccccc1NC(=O)CCc1c(C)nn(-c2ccc(N3CCOCC3)nn2)c1C	/	1	1.7	/	/
Cc1cc(C)n(-c2nc3ccccc3n3cnnc23)n1	-6%	-36	0.1	-4	-2
Cc1ccc(S(=O)(=O)n2ccnc2)cc1C	5%	-6	-1.7	0	-21	Arbovirus inh repeat=0
S=C(NCCOCCOCCNC(=S)Nc1ccccc1)Nc1ccccc1	-3%	8	4.7	-1	/
Cc1ccccc1NC(=O)Cn1c(=O)n(-c2ccc(CC(=O)NCC3CCCO3)cc2)c(=O)c2ccccc21 (stereo not given)	5%	-2	1.8	18	/
N#Cc1nc(-c2ccc(OCc3ccccc3)cc2)oc1NCCN1CCOCC1	/	20	-1.1	-5	-21
C=CCCC1(C)C(=O)N(c2ccccc2)c2ccccc21 (stereo not given)	3%	-4	3.2	-14	-20
CCCN1CCN(C(=O)Cn2nc(C)n3c(cc4sccc43)c2=O)CC1	/	4	-0.2	/	/
COc1cccc(/C(C)=N/NC(=O)c2cc(-c3cccnc3)nc3ccccc23)c1	1%	6	-1.1	2	-20
Cc1ccc(N2CCN(C(=O)Nc3cccc([N+](=O)[O-])c3)CC2C)cc1 (stereo not given)	27µM*	97	-2.4	-6	/
COc1ccc(Cn2nnnc2C(c2ccccn2)N2CCN(c3cc(Cl)ccc3C)CC2)cc1 (stereo not given)	20%	18	13	5	-28
Cc1nn2cc(-c3ccccc3)nc2[nH]c1=O	-4%	-12	-145	5	2
C/C(CC(=O)Nc1ccc(Cl)cc1Cl)=N\NC(N)=S	?	99	4.2	-6	-50
COc1ccc(C2CC(C(F)(F)F)n3ncc(C(=O)O)c3N2)cc1OC (stereo not given)	0%	1	-4.8	-4	-45	Arbovirus inh repeat=1
Cc1c(N2C(=O)c3cccc4cccc(c34)C2=O)c(=O)n(-c2ccccc2)n1C	-12%	-7	-1.8	6	0
Cc1ccc(-n2c(=S)[nH]c3nc4c(cc3c2=O)COC(C)(C)C4)cc1	-2%	-2	3.0	4	-18
CC(C)c1ccc(OCCCCCN2CCOCC2)cc1	/	-6	3.6	/	/
Cc1cc(-c2ccccc2)nc(SCc2ccc(C(=O)O)cc2)n1	/	-4	2.2	/	/
CCn1c(=O)cc(OCC(=O)NCCc2cccc(C)c2)c2ccccc21	7%	8	-2.4	-9	/
O=C(N/C(=C\c1ccco1)C(=O)N1CCC(O)CC1)c1ccccc1	/	-3	-2.1	/	/
Cc1ccc(-n2c(N)c(C(=O)Nc3c(C)n(C)n(-c4ccccc4)c3=O)c3nc4ccccc4nc32)cc1C	80%	96	-1.9	-2	10
CCc1cc2c(COC(=O)c3cccc(S(C)(=O)=O)c3)cc(=O)oc2cc1O	/	3	-2.1	/	/
CCN(CC)CCCn1c2c(c(SCC(=O)Nc3cc(OC)cc(OC)c3)nc1=O)CCC2	/	-5	-0.5	/	/
Cc1ccc(Cl)c(NC(=O)COC(=O)CNS(=O)(=O)/C=C/c2ccccc2)c1Cl	0%	-8	0.4	-6	-32
O=S(=O)(c1cccc2ccccc12)n1nnc2ccccc21	-5%	0	-4.5	8	-39
Clc1ccccc1/C=C/c1nc(-c2ccccn2)no1	-3%	1	0.2	/	/
CCOC(=O)Cc1cnc(NC(=O)Cn2nnc(-c3ccc(OCC)cc3)n2)s1	3%	1	2.6	7	-52
CCc1ccccc1-n1nnnc1-c1cnccc1C(F)(F)F	-9%	2	3.9	/	/
CCOc1ccc(C(=O)CN2CCN(S(=O)(=O)c3ccc(Br)cc3)CC2)cc1	-6%	2	-0.8	-2	6
C=C(C)CN(CC)C(=O)CCc1nnc(CCc2c[nH]c3ccccc23)o1	6%	-2	3.9	-2	/
Cc1cc(=O)oc2c(C)c(OCC(=O)N3CCN(C(=O)C4COc5ccccc5O4)CC3)ccc12 (stereo not given)	/	69	-0.8	/	/
COc1cccc(NC(=O)CN(c2ccc3c(c2)OCO3)S(C)(=O)=O)c1	7%	-6	-0.5	-3	/
O=c1c2ccccc2nc(-c2cccs2)n1-c1ccccc1	5%	-1	-0.4	-1	-30
Cc1ccc(S(=O)(=O)N2CCN(C(=O)COC(=O)/C=C/c3ccccc3[N+](=O)[O-])CC2)c(C)c1	/	-8	-0.9	/	/
O=S(=O)(c1ccc(S(=O)(=O)N2CCCC2)cc1)N1CCCCCC1	-3%	-7	0.4	1	-36
CCOC(=O)C1CCN(C(=O)C2CCN(c3nn4c(=O)cc(C)nc4s3)CC2)CC1	/	0	0.7	/	/
COc1cccc(/C=C2/SC(=S)N(CC(=O)NNC(=O)c3ccccc3OC)C2=O)c1	/	7	-1.6	/	/
Cn1c(=O)oc2cc(S(=O)(=O)Nc3cccc([N+](=O)[O-])c3)ccc21	/	2	-1.2	/	/
CN(C(=O)c1ccco1)C1(c2ccccc2Cl)CCCCC1=O (stereo not given)	-3%	-13	2.5	9	-32
COCCN(Cc1cccs1)S(=O)(=O)c1csc(C(N)=O)c1	/	16	-0.5	/	/
COc1ccc(CCNC(=O)COc2ccc(N(C)S(=O)(=O)c3ccc(Cl)cc3)cc2)cc1	4%	/	0.4	-23	/
CCC(=O)Nc1c(S(=O)(=O)c2ccccc2)c2nc3ccccc3nc2n1C(C)c1ccccc1 (stereo not given)	1%	2	2.1	-9	-17
CC(=O)Nc1nc(=O)c2ccccc2s1	4%	9	1.5	-3	-28
CCCn1c(SCc2nc(-c3cccs3)no2)nnc1-c1ccncc1	0%	-5	1.1	7	-18

(further entries)
SMILES	Mtb H37Rv	Mtb bLac sens	RecA intein inh	Arbovirus inh	YopH PTP inh	others
CCOc1ccc(CC(=O)Nc2c3c(nn2C(C)(C)C)CS(=O)(=O)C3)cc1	/	?	-3.6	/	/
O=C(O)[C@H](Cc1ccccc1)NC(=O)N1CCCCCC1	/	-3	0.0	/	/
CCCCCCCC(=O)NC(Oc1ccccc1[N+](=O)[O-])C(Cl)(Cl)Cl (stereo not given)	-3%	3	1.3	2	6
O=C(OCC(=O)c1ccc[nH]1)c1ccc2ccccc2n1	18%	80	-0.7	-1	/
CC(O)[C@H]1CN=C(N)N1CCCCC1CCCCC1 (stereo not given in full)	-2%	0	0.7	/	/
CCOC(=O)CN1C(=O)N[C@@H](CCc2ccccc2)[C@H](C(C)=O)[C@H]1C	-10%	-7	3.2	/	/
CCCC(C(=O)NCC1CCCO1)N(Cc1ccccc1)C(=O)CNS(=O)(=O)c1ccccc1 (stereo not given)	/	-3	-0.5	/	/
CN(c1ccccc1)S(=O)(=O)c1ccc(Cl)c(C(=O)NCCc2c[nH]c3ccccc23)c1	5%	7	8.3	-18	-11
COC(=O)c1ccccc1NC(=O)C1CCN(S(=O)(=O)c2cc(C)ccc2OC)CC1	4%	22	1.8	6	-22
COCCn1c(=S)[nH]c2cc(C(=O)NC(C)C)ccc2c1=O	-6%	-21	/	0	-2
CC(C)c1ccccc1OCCNC(=O)c1cccnc1	7%	-9	0.9	4	/
O=C(O)CCc1nc2cc3ccccc3cc2[nH]1	-2%	-2	4.4	24	/
N#CCCN(C(=O)COC(=O)c1ccc(S(=O)(=O)N2CCCCCC2)cc1)c1ccccc1	/	-9	-3.8	/	/
O=C1COc2ccc(C(=O)CSc3nnc(NCc4ccccc4)s3)cc2N1	-5%	45	0.0	/	/

Of the compounds above, 2 contain a tert-butyl group.
SMILES	Mtb H37Rv	Mtb bLac sens	RecA intein inh	Arbovirus inh	YopH PTP inh	others
Cc1cc(C)n(-c2cc(C(C)(C)C)nc3c(-c4ccccc4)cnn23)n1	54%	98	12	/	/
CCOc1ccc(CC(=O)Nc2c3c(nn2C(C)(C)C)CS(=O)(=O)C3)cc1	/	?	-3.6	/	/

High-throughput results deposited in PubChem by several laboratories.
